Screens deposited in PubChem by several laboratories.
MT1-MMP act inh: blocks activation of human MT1-MMP | 0.061% of 360,000 active | AID 651647 | P50281 | HT1080 RFP-PRO-GFP cells, GFP/RFP ratio fluorescence, overnight; percent of plate control window, DMSO zero | GFP/RFP ratio change, % at 20 µM;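 active = GFP/RFP ratio change of at least 30% with cell ATP level not reduced by more than half and red fluorescence within 50% of control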; note: strong numbers were not always called active
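Assay system: HT1080 RFP-PRO-GFP cells | Dosing: 20 µM single dose, 1% DMSO | Incubation: Cells overnight before dosing, compound overnight, 37 °C, 5% CO2 | Evaluation: GFP/RFP fluorescence ratio | Control set: DMSO-only wells and HT1080 RFP-L50D-GFP cell wells as references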
UUG fidelity: yeast start codon fidelity modulation; S. cerevisiae UUG-firefly luciferase reporter, luminescence/redox ratio; activity score, % at 18.7 µM; 0.13% of 350,000 active; AID 602363;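 active = replicate mean at a twofold rise or more, about +100% in these data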;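 note: firefly luciferase made from a UUG start codon reports start codon fidelity; reporter light over untreated wells divided by growth signal over untreated wells; some hits fall short of that in this replicate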
CSC inhib: blocks cancer stem cells; cancer stem cell-like cells viability, luminescence; inhibition, % at 7.5 µM; 1.1% of 300,000 active; AID 2717;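 active = mean at 75% or more and at least half the replicates too; tested in HMLE shEcad cells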;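 note: 0% = median of negative and 100% = median of positive control wells; the first replicate is given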
Env fusion inh: inhibitors of HIV Env-mediated cell fusion. inhibition, % at 12.3 µM. 1.1% of 360,000 active. AID 651610. HeLa-JRFL Env/CEM21 cell fusion, luciferase;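 active = mean replicate inhibition score of at least 50 and every replicate individually at or above 50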;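 note: 0% = plate neutral controls and 100% = maraviroc near 300 nM; one replicate is shown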
eIF4H inh: inhibitors of RNA binding by human eIF4H | eIF4H fluorescence polarization binding assay | Q15056 | AID 2012 | inhibition, % at 35 µM | 0.94% of 290,000 active;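 active = 50% or more with normal probe brightness, or confirmed in later tests; about a fifth of its hits are not listed in these tables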;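 note: calls also rest on retests at 20 µM and on dose response follow-up; 0% = protein and probe with vehicle and 100% = probe without protein; strong numbers were not always called active; many hits fall short of the cut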
Rce1 inh: yeast Ras-converting enzyme inhibition. yeast membranes, quenched prenylated peptide cleavage fluorescence. 0.27% of 290,000 active. calls only. Q03530;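 active = fall in fluorescence gain of 50% or more versus controls, with final raw signal at or below 3038400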;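 note: plate controls were neutral control wells for no effect and wells lacking membranes for full effect; tested at 10 µM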
Target sequence (Q03530 whole entry, looked up): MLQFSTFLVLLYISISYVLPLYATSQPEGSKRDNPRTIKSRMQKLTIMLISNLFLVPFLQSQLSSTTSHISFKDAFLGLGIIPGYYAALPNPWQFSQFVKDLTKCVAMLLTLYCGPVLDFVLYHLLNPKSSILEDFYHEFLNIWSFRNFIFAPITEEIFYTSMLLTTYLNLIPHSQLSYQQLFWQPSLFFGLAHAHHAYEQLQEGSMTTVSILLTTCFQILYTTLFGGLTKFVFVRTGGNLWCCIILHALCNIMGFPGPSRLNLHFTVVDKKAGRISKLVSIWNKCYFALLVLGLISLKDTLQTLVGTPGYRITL
PABP FP inh: blocks human PABP binding to poly(A) RNA. fluorescence polarization. 1% of 290,000 active. P11940. inhibition, % at 35 µM. AID 2014;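 active = 50% or more with normal probe brightness, or confirmed in later tests; about a fifth of its hits are not listed in these tables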;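 note: calls also rest on retests at 20 µM and on dose response follow-up; controls were probe without protein and protein plus probe with vehicle; some compounds called inactive have numbers as strong as hits; many hits fall short of the cut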
MT1-MMP act inh RFP: also measured in MT1-MMP act inh; calls as there; RFP signal change, %; measured here: RFP expression control read;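 0 = vehicle wells; hits needed this value within 50% of zero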
The depositor's hits bear a star; i = inactive; x = no result given.

nr	canonical_smiles	MT1-MMP act inh	MT1-MMP act inh RFP	UUG fidelity	CSC inhib
1	COc1cccc(C(C)NC(=O)C2CCCC2)c1 (stereo unspecified)	-1	-4	-10	-15
2	Cc1ccc(Nc2nc(NCC3CCCO3)nc(N)c2[N+](=O)[O-])cc1C (stereo unspecified)	-1	2	-6	-18
3	CCC(CC)NC(=O)C1CCN(S(=O)(=O)c2cccs2)CC1	4	7	1	12
4	CCOc1ccccc1CN1CCN(Cc2ccc(C)o2)CC1CCO (stereo unspecified)	-8	2	x	-5
5	Cc1nc(Cc2ccc(OC(C)C)cc2)[nH]c(=O)c1CC(=O)O	-2	0	x	-9
6	Cc1nc(C(F)(F)F)c(C(=O)N/N=C(\N)c2cccnc2)s1	-2	-4	x	-10
7	Cc1ccccc1-n1cc(CNC(=O)CCc2nnc(CCc3ccccc3)o2)cn1	-1	-3	x	-13
8	CCc1nc(SCc2ccc(C(=O)OC)o2)c2c(=O)n(C)c(=O)n(C)c2n1	6	-10	-15	-1
9	COc1ccc(-c2csc(C(O)c3cccnc3)n2)cn1 (stereo unspecified)	0	-2	-15	x
10	Cc1cc2c(cc1S(=O)(=O)N1CCN(c3ccc(Cl)cc3)CC1)OCCN2C	3	-8	2	11
11	Cc1c(C(=O)OCC(=O)N2CCCC2)cccc1[N+](=O)[O-]	3	5	28	1
12	O=C(NN1C(=O)C2C3CCC(O3)C2C1=O)c1ccc(Cl)cc1 (stereo unspecified)	3	8	-15	-5
13	CC(OC(=O)c1cc(S(=O)(=O)N2CCOCC2)ccc1F)C(=O)NCc1ccc2c(c1)OCO2 (stereo unspecified)	0	1	-9	-11
14	Cc1cccn2cc(-c3cccc(S(=O)(=O)N4CCCCC4)c3)nc12	2	-2	-14	-11
15	CCN(CC)c1ccc(CC(=O)NC(C)Cc2ccccc2)cc1 (stereo unspecified)	1	1	-9	2

nr	Env fusion inh	eIF4H inh	Rce1 inh	PABP FP inh
1	-4	-12	i	-5
2	x	6	i	2
3	-63	2	i	5
4	9	0	i	-2
5	10	10	x	0
6	-5	-3	i	-7
7	8	-3	i	-11
8	-15	4	i	-5
9	-6	x	x	x
10	3	-14	i	-7
11	-7	-4	i	-2
12	7	-2	i	-3
13	-2	x	i	x
14	6	1	i	-14
15	x	-8	i	4

The list goes on:
nr	canonical_smiles	MT1-MMP act inh	MT1-MMP act inh RFP	UUG fidelity	CSC inhib
16	O=c1c(Cc2ccc(Cl)cc2)c(O)ccn1Cc1ccncc1	-6	-4	x	-11
17	COc1ccc(C)cc1NC(=O)C1CC(=O)OC12CCCCC2 (stereo unspecified)	0	-9	-14	-1
18	COc1ccc(Cc2c(-c3ccco3)nc3ccc(Br)cn23)c(C)c1	-4	0	-33	x
19	Cn1nc(C(C)(C)C)cc1C(=O)NCc1cc(F)cc2c1OCOC2	-3	-32	-7	-12
20	O=C(Nc1ccccc1C(=O)O)c1ccc(N2C(=O)C3CC=CCC3C2=O)cc1 (stereo unspecified)	-2	1	-25	13
21	C=C(C)C1CC=C(C)/C(=N\NC(=O)CNc2ccccc2OC)C1 (stereo unspecified)	1	5	x	-17
22	CCCc1c(C(=O)N/N=C/c2ccoc2)nnn1-c1nonc1N	-3	4	-34	x
23	Cc1ccccc1NC(=O)N1C2CCCC1CC(NC(=O)C1CC1)C2 (stereo unspecified)	7	3	-7	-23
24	O=S(=O)(Nc1cccc2cccnc12)c1ccc(S(=O)(=O)N2CCCC2)cc1	7	-3	-31	45
25	COc1ccc(Cl)cc1N(CC(=O)Nc1ccc2c(c1)OCO2)S(C)(=O)=O	0	-6	1	-12
26	CCOC(CNc1ncnc2sc(-c3ccccc3)cc12)OCC	-2	-8	1	1
27	O=C(O)c1ccc2cccnc2n1	3	8	-11	x
28	Cc1cc2c(c(=O)n1CCc1ccccc1)C(c1ccco1)C(C#N)=C(N)O2 (stereo unspecified)	-8	1	4	-6
29	Cc1cc(C)c(S(=O)(=O)c2c(C)cccc2C)c(Cl)n1	0	-2	-10	1
30	COc1cc(CNC(=O)c2cc(-c3cc(Cl)ccc3OC)n[nH]2)cc(OC)c1	-6	-6	-19	x

nr	Env fusion inh	eIF4H inh	Rce1 inh	PABP FP inh
16	6	-4	i	-1
17	-12	-1	i	11
18	-12	x	x	x
19	18	-2	i	-10
20	14	4	i	0
21	7	2	i	-8
22	8	x	x	x
23	15	-6	i	14
24	x	9	i	-2
25	-23	-7	i	46
26	-5	-2	i	2
27	-7	35	i	-12
28	-4	23	i	23
29	-32	2	i	1
30	-12	x	x	x

More results
nr	canonical_smiles	MT1-MMP act inh	MT1-MMP act inh RFP	UUG fidelity	CSC inhib
31	COc1cccc(-c2nnc(SCc3ccccn3)n2C)c1	x	x	1	2
32	CCCCC(Nc1ncnc2ccccc12)C(=O)O (stereo unspecified)	-1	-4	-8	-1
33	O=C(NN1C(=O)/C(=C/C=C/c2ccco2)SC1=S)c1ccccc1O	5	36	9	20
34	COc1ccc(CCNC(=O)Cn2c(=O)c3cccn3c3cccnc32)c(OC)c1OC	-2	3	-17	-12
35	CCOc1ccc(Nc2nc(C)cc(C)c2C#N)cc1	-3	3	-11	-11
36	Cc1ccc2cccc([N+](=O)[O-])c2n1	-1	-2	-9	x
37	Cc1cc(Sc2ncnc(N)c2[N+](=O)[O-])ncn1	-4	-4	x	37
38	Cc1ccccc1NC(=O)C(=O)N/N=C/c1cccc(Br)c1	-4	4	x	2
39	O=C(OCc1ccccc1)N1CCC2CC1c1ccc(-c3ccc4c(c3)OCO4)cc12 (stereo unspecified)	-3	0	-7	x
40	CC(C)(C)c1ccc(OCC(=O)NC2CCS(=O)(=O)C2)cc1 (stereo unspecified)	4	8	x	-16
41	CC(OC(=O)c1nc(Cl)ccc1Cl)C(=O)NC1CCCCC1C (stereo unspecified)	4	4	2	-5
42	O=C(CSc1cccc(C(F)(F)F)c1)N1CCN(S(=O)(=O)c2ccccc2)CC1	-1	-5	-5	x
43	COc1ccc(CN2CCNC(=O)C2CC(=O)NCC(C)(C)N2CCOCC2)cc1C (stereo unspecified)	1	6	-18	2
44	COc1ccc(CNC(=O)COC(=O)c2ccco2)cc1	-2	2	x	-13
45	COc1ccc(OC2CCN(S(=O)(=O)c3ccc(OC)c(OC)c3)CC2)cc1	5	-18	20	-2

nr	Env fusion inh	eIF4H inh	Rce1 inh	PABP FP inh
31	-12	-1	i	1
32	-92	-2	i	-2
33	-4	94*	i	89*
34	10	20	i	3
35	x	-2	i	8
36	-40	x	x	x
37	x	3	i	0
38	x	-2	i	-2
39	20	x	x	x
40	-12	-6	i	-1
41	x	x	x	x
42	x	-9	i	-2
43	-11	13	i	3
44	-3	1	i	-8
45	11	-2	i	0

15 structures out of the list, ordered by length of the SMILES, descending.
nr	canonical_smiles	MT1-MMP act inh	MT1-MMP act inh RFP	UUG fidelity	CSC inhib
42	O=C(CSc1cccc(C(F)(F)F)c1)N1CCN(S(=O)(=O)c2ccccc2)CC1	-1	-5	-5	x
39	O=C(OCc1ccccc1)N1CCC2CC1c1ccc(-c3ccc4c(c3)OCO4)cc12 (stereo unspecified)	-3	0	-7	x
30	COc1cc(CNC(=O)c2cc(-c3cc(Cl)ccc3OC)n[nH]2)cc(OC)c1	-6	-6	-19	x
28	Cc1cc2c(c(=O)n1CCc1ccccc1)C(c1ccco1)C(C#N)=C(N)O2 (stereo unspecified)	-8	1	4	-6
45	COc1ccc(OC2CCN(S(=O)(=O)c3ccc(OC)c(OC)c3)CC2)cc1	5	-18	20	-2
33	O=C(NN1C(=O)/C(=C/C=C/c2ccco2)SC1=S)c1ccccc1O	5	36	9	20
40	CC(C)(C)c1ccc(OCC(=O)NC2CCS(=O)(=O)C2)cc1 (stereo unspecified)	4	8	x	-16
41	CC(OC(=O)c1nc(Cl)ccc1Cl)C(=O)NC1CCCCC1C (stereo unspecified)	4	4	2	-5
38	Cc1ccccc1NC(=O)C(=O)N/N=C/c1cccc(Br)c1	-4	4	x	2
26	CCOC(CNc1ncnc2sc(-c3ccccc3)cc12)OCC	-2	-8	1	1
44	COc1ccc(CNC(=O)COC(=O)c2ccco2)cc1	-2	2	x	-13
35	CCOc1ccc(Nc2nc(C)cc(C)c2C#N)cc1	-3	3	-11	-11
36	Cc1ccc2cccc([N+](=O)[O-])c2n1	-1	-2	-9	x
32	CCCCC(Nc1ncnc2ccccc12)C(=O)O (stereo unspecified)	-1	-4	-8	-1
27	O=C(O)c1ccc2cccnc2n1	3	8	-11	x

nr	Env fusion inh	eIF4H inh	Rce1 inh	PABP FP inh
42	x	-9	i	-2
39	20	x	x	x
30	-12	x	x	x
28	-4	23	i	23
45	11	-2	i	0
33	-4	94*	i	89*
40	-12	-6	i	-1
41	x	x	x	x
38	x	-2	i	-2
26	-5	-2	i	2
44	-3	1	i	-8
35	x	-2	i	8
36	-40	x	x	x
32	-92	-2	i	-2
27	-7	35	i	-12

(continued)
nr	canonical_smiles	MT1-MMP act inh	MT1-MMP act inh RFP	UUG fidelity	CSC inhib
46	COc1ccc(NC(C)=O)cc1NC(=O)CSc1nnc(-c2cccnc2)n1C	4	-2	-16	7
47	O=C(Nc1c(C(=O)N2CCC(N3CCCCC3)CC2)oc2ccccc12)c1ccc(F)cc1	5	4	-1	-14
48	COc1ccccc1CC1(C)NC(=O)N(CC(=O)Nc2cc(C)on2)C1=O (stereo unspecified)	-3	-1	-10	-1
49	O=S(=O)(c1cccc2cccnc12)N1CCN(c2ccccn2)CC1	-5	-5	-45	4
50	CCCc1cc(=O)[nH]c(SCC(=O)N(CC)C2CCS(=O)(=O)C2)n1 (stereo unspecified)	3	8	x	2
51	CCOCCCNCC(=O)N1CCN(S(=O)(=O)c2ccc(C)cc2)CC1	2	2	-11	-18
52	COc1ccc(/C=C/C(=O)Nc2ccccc2C(=O)NCC(c2ccc(OC)cc2)N(C)C)cc1 (stereo unspecified)	-1	0	-3	-7
53	NS(=O)(=O)c1cccc(NC(=O)CNC(=O)CC23CC4CC(CC(C4)C2)C3)c1	2	1	-6	-14
54	COc1ccc2c(c1)C=C(C(=O)NCc1ccc(Cl)cc1)CO2	8	1	6	x
55	CCn1c(O)c(/C=N/N=C2CCCCC2)c2cc(C3=NNC(=O)CC3)ccc21	5	7	x	13

nr	Env fusion inh	eIF4H inh	Rce1 inh	PABP FP inh
46	7	-4	i	-8
47	-21	-12	i	5
48	-15	11	i	5
49	6	-1	i	-4
50	x	7	i	0
51	x	-4	i	18
52	-5	-4	i	-10
53	31	-8	i	-1
54	9	-16	i	1
55	25	5	i	-1
